# cardiac RTF act: cardiac RTF calcium sensitization; P19429+P45379; IANBD-labeled TnC RTF fluorescence at EC20 calcium; 0% EC20 calcium, 100% full calcium; activation, % at 7.2 µM; 340,000 tested, 0.24% active;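 active means activation above the mean over all tested compounds plus 3 SD, cut at about 30% in these data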;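 further: rise in fluorescence read as greater calcium sensitivity of cardiac thin filaments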
# Keap1 Nrf2 FP: Keap1-Nrf2 (human) interaction inhibition | Q14145 | Keap1 Kelch-Nrf2 peptide fluorescence polarization, 1536-well | inhibition, % at 9.4 µM | 340,000 tested, 0.15% active | AID 504523; in the data active means inhibition above about 12%;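 further: human Keap1 Kelch domain with fluorescein labeled Nrf2 9mer peptide probe; 0% = neutral control wells and 100% = peptide positive control; higher means more block of Keap1 binding to Nrf2 peptide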
# HTR5A inv ag: counter-screen for OPRM1-OPRD1 inverse agonists: human HTR5A inverse agonism; P47898; HTR5A cell line, luminescence; inhibition, % at 9.3 µM; 340,000 tested, 0.083% active; AID 504634; in the data active means inhibition mostly above about 23%, no sharp cut-off; inactive means mostly below about 18%;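 further: 0% = cells with DMSO and 100% = no-cell wells with DMSO; some compounds called inactive have numbers as strong as hits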
# Target sequence (P47898 whole entry, looked up): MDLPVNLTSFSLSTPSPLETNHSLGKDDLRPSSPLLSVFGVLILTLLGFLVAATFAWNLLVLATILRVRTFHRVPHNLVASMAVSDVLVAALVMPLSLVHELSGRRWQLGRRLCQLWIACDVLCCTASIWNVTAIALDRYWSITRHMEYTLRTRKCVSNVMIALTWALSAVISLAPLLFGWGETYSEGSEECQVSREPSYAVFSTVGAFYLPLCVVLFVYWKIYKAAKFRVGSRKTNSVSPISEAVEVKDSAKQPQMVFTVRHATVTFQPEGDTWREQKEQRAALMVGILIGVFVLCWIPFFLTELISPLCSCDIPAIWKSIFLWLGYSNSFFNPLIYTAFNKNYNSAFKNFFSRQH
# RTF Ca sens inh: cardiac RTF calcium desensitization; inhibition, % at 7.15 µM; AID 493244; 340,000 tested, 0.12% active; IANBD-labeled cardiac RTF, Ca2+ fluorescence;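 active means inhibition above the mean inhibition of all tested compounds plus 3 SD, cut at about 17% in these data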;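 further: assay run at fixed EC70 calcium of 1.6 mM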
# C-LANA FP: KSHV C-LANA DNA binding inhibition | MBP-C-LANA/FAM-LBS DNA binding, fluorescence polarization | inhibition, % at 9 µM | 340,000 tested, 0.078% active;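 active means highest replicate inhibition at or above 60% at 9 µM, even if other replicates fall short; inactive means all replicates below 60% inhibition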;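 further: 0% = neutral control wells and 100% = 4 µM acridine orange control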
# CAL-PDZ inh HTS: inhibitors of human CAL PDZ peptide binding | purified CAL PDZ, TMR-peptide fluorescence polarization, 1 h | 300,000 tested, 0.92% active | inhibition, % at 24.9 µM | AID 602252 | Q9HD26;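 active means mean inhibition of at least 30% with at least half of replicates also reaching 30%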;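 further: 0% = DMSO neutral control and 100% = excess unlabeled competitor peptide PRC23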
# V-ATPase pH: alters yeast V-ATPase proton transport. S. cerevisiae, pHLuorin cytosolic pH fluorescence. response, % at 10 µM. 350,000 tested, 0.37% active; in the data active means response mostly above about 7.3%, no sharp cut-off; inactive means mostly below about 5.4%; further: actives read high; inactives centre near 0; some compounds called inactive have numbers as strong as hits; reference of the scale not given here
# HTR5A ag ctr: activates human HTR5A in OPRM1-OPRD1 agonist counter-screen; activation, % at 9.3 µM; 340,000 tested, 0.61% active; P47898; HTR5A agonist assay, luminescence, cell-based; AID 504692; in the data active means activation mostly above about 9.5%, no sharp cut-off; inactive means mostly below about 7.6%;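 further: 0% = cells with vehicle only and 100% = reference agonist; strong numbers were not always called active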
# The depositor's hits bear a star; & = joins results of further samples. The list is partial; count on the stated rates, not on these rows.
# Preview, 3 compounds:
# Short keys – A = cardiac RTF act; B = Keap1 Nrf2 FP; C = HTR5A inv ag; D = RTF Ca sens inh; E = C-LANA FP; F = CAL-PDZ inh HTS; G = V-ATPase pH; H = HTR5A ag ctr
Structure: COc1ccc(C(=O)c2ccccc2O)c(O)c1
  A: -5.5 | B: 0.9 | C: 3.0 | D: 17.4* | E: -0.4 | F: -6.0 | G: -1.0 | H: -0.8

Structure: Cc1ccccc1C(OCCN(C)C)c1ccccc1 (stereo not given)
  A: 11.9&4.8 | B: 8.0&-2.7 | C: -28.4&9.8 | D: 13.9&7.7 | E: -1.2&1.5 | F: -2.1&-4.3 | G: -4.0&2.1 | H: 2.9&3.6

Structure: CC(=O)O[C@H]1C[C@@]2(C)[C@@H](C[C@@H](O)[C@H]3[C@@]4(C)CC[C@@H](O)[C@@H](C)[C@@H]4CC[C@@]32C)/C1=C(\CCC=C(C)C)C(=O)O
  A: 3.5&-1.1 | B: -2.2&-0.7 | C: 15.1&3.0 | D: 13.9&2.7 | E: -2.2&-1.6 | F: -2.6&1.5 | G: -2.5&3.6 | H: -4.2&-0.8

# The whole of this part (from the top)
# Short keys – A = cardiac RTF act; B = Keap1 Nrf2 FP; C = HTR5A inv ag; D = RTF Ca sens inh; E = C-LANA FP; F = CAL-PDZ inh HTS; G = V-ATPase pH; H = HTR5A ag ctr
Structure: COc1ccc(C(=O)c2ccccc2O)c(O)c1
  A: -5.5 | B: 0.9 | C: 3.0 | D: 17.4* | E: -0.4 | F: -6.0 | G: -1.0 | H: -0.8

Structure: Cc1ccccc1C(OCCN(C)C)c1ccccc1 (stereo not given)
  A: 11.9&4.8 | B: 8.0&-2.7 | C: -28.4&9.8 | D: 13.9&7.7 | E: -1.2&1.5 | F: -2.1&-4.3 | G: -4.0&2.1 | H: 2.9&3.6

Structure: CC(=O)O[C@H]1C[C@@]2(C)[C@@H](C[C@@H](O)[C@H]3[C@@]4(C)CC[C@@H](O)[C@@H](C)[C@@H]4CC[C@@]32C)/C1=C(\CCC=C(C)C)C(=O)O
  A: 3.5&-1.1 | B: -2.2&-0.7 | C: 15.1&3.0 | D: 13.9&2.7 | E: -2.2&-1.6 | F: -2.6&1.5 | G: -2.5&3.6 | H: -4.2&-0.8

Structure: CC(C)NC[C@H](O)COc1ccc(CC(N)=O)cc1
  A: -2.6 | B: -0.4 | C: 6.1 | D: 13.1 | E: 1.2 | F: -3.5 | G: -4.3 | H: -1.7

Structure: CN(C)CCN(Cc1cccs1)c1ccccn1
  A: 5.6 | B: -4.5 | C: -24.7 | D: 11.3 | E: 1.7 | F: -2.3 | G: 3.6 | H: -3.5

Structure: CCOC(=O)Nc1ccc2c(c1)N(C(=O)CN(C)C)c1ccccc1CC2
  A: 14.4 | B: -4.8 | C: 1.6 | D: -4.3 | E: -1.9 | F: -5.0 | G: 3.8 | H: 11.1

Structure: CNC(=O)c1c(I)c(C(=O)NCC(=O)Nc2c(I)c(C(=O)O)c(I)c(C(=O)NCCO)c2I)c(I)c(N(C)C(C)=O)c1I
  A: -4.3 | B: 6.2 | C: -26.0 | D: 4.7 | E: -8.3 | F: 3.3 | G: -2.6 | H: 4.8

Structure: Cc1cn[nH]c1
  A: -0.9 | B: 4.2 | C: -0.6 | D: 13.4 | E: 16.3 | F: -3.9 | G: 4.3 | H: 0.4

Structure: OCCN1CCN(CCCN2c3ccccc3Sc3ccc(C(F)(F)F)cc32)CC1
  A: 2.8 | B: -2.7 | C: -18.2 | D: 6.2 | E: 2.1 | F: -5.4 | G: -2.5 | H: 5.1

# In the list so far, 2 have a halogen.
# Short keys – A = cardiac RTF act; B = Keap1 Nrf2 FP; C = HTR5A inv ag; D = RTF Ca sens inh; E = C-LANA FP; F = CAL-PDZ inh HTS; G = V-ATPase pH; H = HTR5A ag ctr
Structure: CNC(=O)c1c(I)c(C(=O)NCC(=O)Nc2c(I)c(C(=O)O)c(I)c(C(=O)NCCO)c2I)c(I)c(N(C)C(C)=O)c1I
  A: -4.3 | B: 6.2 | C: -26.0 | D: 4.7 | E: -8.3 | F: 3.3 | G: -2.6 | H: 4.8

Structure: OCCN1CCN(CCCN2c3ccccc3Sc3ccc(C(F)(F)F)cc32)CC1
  A: 2.8 | B: -2.7 | C: -18.2 | D: 6.2 | E: 2.1 | F: -5.4 | G: -2.5 | H: 5.1

# Screening results as filed in PubChem.
